# Assay outcomes deposited in PubChem BioAssay by ICCB-Longwood Screening Facility, Harvard Medical School.
# LANA-nucl inh: LANA-nucleosome interaction inhibition; FITC-LANA1-23 / chicken nucleosome fluorescence polarization; stronger effect = lower value; z-score (test concentration not listed); hit rate 0.3% among 51,000; AID 720717;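 active = both repeat wells score below -2 in polarization z-score versus plate sample wells, excluding overly bright wells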;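 also: 100 nL library stock added to about 30 µL; numbers are from one replicate; some results filed as inactive read as strong as hits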
#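 System – purified chicken nucleosomes with FITC-labelled LANA N-terminal peptide (1-23) · Amount – 240 nM purified chicken nucleosomes (480 nM peptide binding sites), final · Also added – 50 nM FITC-LANA1-23 probe · Medium – TEN-BT buffer, pH 7.5 · Incubation – compound with peptide–nucleosome mix 10–45 min at room temperature · Detection – fluorescence polarization, ex 480 nm, em 535 nm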
# Ab BasE inh: inhibitors of Acinetobacter baumannii siderophore enzyme BasE; purified BasE, fluorescence polarization binding displacement; inhibition, % (test concentration not listed); hit rate 0.1% among 84,000; AID 485350;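 active = both replicates above 25% with normal brightness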;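 also: 0% = negative plate control signal and 100% = positive plate control signal; stock transfer was 100 nL into about 30 µL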
# Starred values were filed as active, the others as inactive; x = no result given; & = joins results of further samples. Some of the compounds tested; count on the stated rates, not on these rows.
SMILES,LANA-nucl inh,Ab BasE inh
Cc1ccccc1CN1C(=O)C(O)(CC(=O)/C=C\c2ccccc2)c2ccccc21 (stereo not given),x,1.4
CC(C)(C)N1Sc2ccccc2NC1=S,0.755,2.4&1.9
COc1ccc(C(=O)NC2=NCCS2)cc1S(=O)(=O)N1CCCCC1C (stereo not given),x,-0.3
CC(C)n1c2ccc(Br)cc2c2nc3ccccc3nc21,-0.469,2.6
CCn1nnnc1SCC(=O)c1ccc(NC(C)=O)cc1,-0.547,1.8
Cn1c(=O)c(/C(N)=N/OC(=O)c2ccccc2)cn(-c2ccccc2)c1=O,-0.174,1.0
Cc1nc(C(F)(F)F)ccc1C(=O)NCC1CC1,x,2.0
Cc1nnsc1C(=O)N1CCN(C2c3ccccc3-c3ccccc32)CC1,0.366,x
O=S1(=O)CCC(N=Nc2c(O)n(Cc3ccccc3)c3ccccc23)C1 (stereo not given),x,-0.8
Cc1cc2ncc(C(=O)/C=C/N(C)C)c(C)n2n1,x,0.2

# Not a retest: entries from further up.
SMILES,LANA-nucl inh,Ab BasE inh
Cn1c(=O)c(/C(N)=N/OC(=O)c2ccccc2)cn(-c2ccccc2)c1=O,-0.174,1.0
Cc1nc(C(F)(F)F)ccc1C(=O)NCC1CC1,x,2.0

# Next compounds.
SMILES,LANA-nucl inh,Ab BasE inh
CSc1nc(N)nc2sc3c(O)cc(=O)[nH]c3c12,0.916,1.4
CCCSc1nsc(NC(=O)CCc2nc3ccccc3c(=O)[nH]2)n1,x,0.0
O=c1oc2cc(Oc3ncnc4c3oc3ccccc34)ccc2c2c1CCC2,x,-0.7
C/C(N)=C(/C#N)C(=O)Cn1nnc2ccccc2c1=O,x,0.5
CSc1nnc2c(n1)OC(/C=C/c1ccco1)Nc1ccccc1-2 (stereo not given),0.436,1.1
CC(=O)N(Cc1cccs1)C1CCOC(C)(C)C1 (stereo not given),-0.451,1.9
C=CCn1c(=N)n(CC(=O)c2cccs2)c2ccccc21,-0.419,-2.6
CC(C)(C)C1CCC(=NNc2ccc(C(=O)O)cc2)CC1 (stereo not given),x,1.8
COc1ccccc1N1CCN(C(=O)Cn2nc(C(F)(F)F)c3c2CCC3)CC1,-1.38,0.1
CCc1nn(CC(=O)NCc2ccc3c(c2)OCO3)c(=O)c2cc3sccc3n12,1.47,-0.6
Cn1nc(-c2ccc(N3CCCCC3)c(NC(=O)c3ccccc3)c2)c2ccccc2c1=O,x,2.2
O=C(Cn1nnc(-c2ccccc2)n1)N/N=C/c1ccc(N2CCOCC2)s1,x,0.8
NC(=O)N/N=C/c1cccn1-c1ccc(C(F)(F)F)cc1,-1.38,2.2
O=C1c2ccccc2-c2cccc(C(=O)N3CCCCC3)c21,0.152,2.6
CN(C)c1ccc(/C=N/n2ncc3ccccc32)cc1,x,-1.2
CC(=O)Nc1cccc(-n2nnc(SCC(=O)c3ccc4c(c3)OCCCO4)n2)c1,-0.243,-2.4
COc1ccc(S(=O)(=O)N(CC(=O)Nc2ccc3c(c2)OCCO3)c2ccccc2)cc1OC,0.653,-0.3
CCOc1ccc(C(=O)NC2CCN(C(=O)NCc3ccccc3)CC2)cc1,-0.705,0.3
Cn1c(C(=O)N/N=C/c2cccs2)cnc1SCc1ccc(Cl)cc1,-0.0545,3.1
COc1ccc(CC(=O)Nc2ccc(-c3cnco3)cc2)cc1OC,x,-0.8

# Grouped by structure: those above containing fluorine
SMILES,LANA-nucl inh,Ab BasE inh
Cc1nc(C(F)(F)F)ccc1C(=O)NCC1CC1,x,2.0
COc1ccccc1N1CCN(C(=O)Cn2nc(C(F)(F)F)c3c2CCC3)CC1,-1.38,0.1
NC(=O)N/N=C/c1cccn1-c1ccc(C(F)(F)F)cc1,-1.38,2.2

# Other records:
SMILES,LANA-nucl inh,Ab BasE inh
O=S(=O)(CC(O)c1ccc(Cl)c(Cl)c1)c1ccc(Br)cc1 (stereo not given),0.777,x
CCOC(=O)c1cc(C(=O)OC)c(C)nc1N1CCCN(Cc2ccc(F)cc2)CC1,x,1.6
CC1=CS/C(=C(/C#N)c2nnc(N3CCOCC3)n2-c2ccccc2)N1c1ccc(OC(F)F)cc1,x,0.2
CC(Oc1ccc(Cl)cc1Cl)/C(N)=N/O (stereo not given),x,-4.3
CC(=O)Nc1ccccc1NC(=O)c1ccccc1,0.671,-3.3
CCCn1c(NC(=O)CCCc2nc3ccccc3c(=O)[nH]2)nc2ccccc21,x,-0.8
O=C(O)c1ccc(NC(=O)c2ccc3c(c2)C(=O)N(Cc2ccco2)C3=O)cc1,-0.805,8.6
CCN(Cc1ccncc1)C(=O)c1cccc(C(F)(F)F)c1,0.0685,1.6
O=C1c2ccccc2C(O)(c2ncc[nH]2)N1CCc1ccccc1 (stereo not given),x,2.4
O=C1N/C(=N\S(=O)(=O)c2ccccc2)S/C1=C/c1ccco1,x,3.9

# 6 compounds from above, ordered by count of non-hydrogen atoms, rising.
SMILES,LANA-nucl inh,Ab BasE inh
CC(Oc1ccc(Cl)cc1Cl)/C(N)=N/O (stereo not given),x,-4.3
CC(=O)Nc1ccccc1NC(=O)c1ccccc1,0.671,-3.3
O=S(=O)(CC(O)c1ccc(Cl)c(Cl)c1)c1ccc(Br)cc1 (stereo not given),0.777,x
O=C1c2ccccc2C(O)(c2ncc[nH]2)N1CCc1ccccc1 (stereo not given),x,2.4
CCOC(=O)c1cc(C(=O)OC)c(C)nc1N1CCCN(Cc2ccc(F)cc2)CC1,x,1.6
CC1=CS/C(=C(/C#N)c2nnc(N3CCOCC3)n2-c2ccccc2)N1c1ccc(OC(F)F)cc1,x,0.2

# Next compounds:
SMILES,LANA-nucl inh,Ab BasE inh
CC1(C)CC(=O)C2=C(C1)Nc1ccccc1S2,-0.731,12.1
CC(C(=O)c1ccc(Cl)cc1Cl)n1cncn1 (stereo not given),0.488,-0.7
CN1C(=O)c2ccccc2C(C(=O)N2CCCCCC2)C1c1c[nH]c2ccccc12 (stereo not given),-0.0945,1.6
Cc1cc(-c2csc(-c3ccccc3)n2)c(C)n1-c1nccs1,x,-1.8
COc1ccc(OC)c(NC(=O)CSc2nc3c(c(=O)n2Cc2ccccc2)SC(C)C3)c1 (stereo not given),-0.718,-1.5
O=C(C[n+]1cccc(/C=N/O)c1)NC12CC3CC(CC(C3)C1)C2,x,-0.5
COc1ccc(CCC(C)N2CCN(c3cc(C)ccc3C)CC2)cc1 (stereo not given),-0.892,-1.0
CCc1ccc(S(=O)(=O)Nc2c(C)nc3nc[nH]n3c2=O)cc1,0.286,2.3
CN1/C(=C\C(=O)CSCc2ccco2)C(C)(C)c2ccccc21,x,1.9
CC(=O)Nc1ccc(OCc2cnc(Cl)s2)cc1,0.681,x
O=c1ccnc(SCCc2ccccc2)[nH]1,0.798,-0.5
O=C1Nc2ccccc2/C1=N\N=C\c1ccccc1,x,-0.6
CSc1cccc(NC(=O)COC(=O)c2ccccc2)c1,x,0.2
COc1ccc(C(=O)O)cc1S(=O)(=O)NCCc1ccccc1,-0.136,-0.2
Nc1ncnc2c1ncn2[C@@H]1O[C@H](CO)[C@@H](O)[C@@H]1O,-0.167&-0.373&0.666,-2.3
CC(C)(C)C(=O)COC(=O)c1ccc(NS(=O)(=O)c2cccs2)cc1O,x,0.0
CCN1CCN(CC(=O)N/N=C/c2ccccc2)CC1,0.0515,1.8
Cc1onc(-c2ccccc2)c1C(=O)NC1C(=O)N2[C@@H]1SC(C)(C)[C@@H]2C(=O)O (stereo not given in full),0.024&0.019,3.4
CCN(C(=O)NS(=O)(=O)c1ccc(C)cc1)C1CCCCC1,x,0.0
C=CCn1c(SCC(=O)N2CCc3ccccc3C2)nnc1-c1ccccc1OC,x,0.0
Cc1cccc(N2CCN(C(=O)CCc3nnc4n(C)c(=O)c5ccccc5n34)CC2)c1C,1.04,-0.9
CCOc1ccc(C(C)N)cc1 (stereo not given),-0.316,1.0
CCC(C(=O)C(C)C(O)C(C)CCc1ccc(C)c(O)c1C(=O)O)[C@H]1O[C@](CC)([C@H]2CC[C@](O)(CC)[C@H](C)O2)C[C@@H]1C (stereo not given in full),-0.189,0.8
O=C(COC(=O)C1=COCCO1)NCc1cccs1,x,0.0
Cc1ccsc1/C=N/NC(=O)c1nnn(-c2nonc2N)c1C,-0.676,0.2
CCc1cc(C(=O)OC)c(NC(=O)CC2SC(=NC)N(C)C2=O)s1 (stereo not given),2.89,-3.4
CC(C(=O)NCc1ccco1)N(C(=O)c1ccc(Cl)nc1)C1CCCCC1 (stereo not given),-0.22,-1.1
CCOC(=O)CNc1c(-c2ccc(OC)cc2)nc2cccc(C)n12,0.0245,1.2
CC(C)NC(=O)CSc1nnc(-c2ccc(C(C)(C)C)cc2)n1-c1ccc2c(c1)OCO2,x,0.2
CC(=O)Nc1ccccc1C(=O)NN,-0.14,-1.8
S=C1NC2(CCCCCC2)NN1c1ccccc1,0.643,0.2
COc1ccc(Cl)cc1NC(=O)CN(C)CN1C(=O)C2CC=CCC2C1=O (stereo not given),x,2.2
COc1ccc(OC)c(CNC(=O)c2cc3cc4ccc(C)cc4nc3o2)c1,-0.031,1.7
COC(=O)CN1C(=O)/C(=C\c2ccc(O)cc2)SC1=S,x,-27.4
CN(C)c1ccc(C=Nc2ccc(C(N)=O)cc2)cc1,-0.366,5.5
Cc1ccc(CNC(=O)Cn2c3ccc(C)cc3c3nc4n(c(=O)c32)CCS4)cc1,0.297,-0.5
CCN1C(=O)c2cccc3c(S(=O)(=O)N4CCc5ccccc5C4)ccc1c23,x,3.5
Cc1cnc(NC(=O)CCN2C(=O)c3ccccc3C2=O)s1,-0.685,0.9
O=c1c(-c2nnnn2-c2ccccc2)c[nH]c2ccccc12,x,1.8
C=CCN(C(=O)CSc1nc2ccccc2o1)c1nc2c(s1)CCCC2,x,-12.4
CC1CCC(C(C)C)C(=O)/C1=C/c1ccc(N(C)C)cc1 (stereo not given),x,2.1
Nc1ccc(C(=O)OC(C(=O)N2CCOCC2)c2ccccc2)cc1 (stereo not given),x,0.2
CCOC(=O)C1=C(C)NC2=C(C(=O)OC2)C1c1ccccc1 (stereo not given),x,1.8
Cc1cc(OCc2noc(CSc3ccc(C(F)(F)F)cn3)n2)cc(C)c1Cl,x,0.0
O=C(CSc1nnc(CN2CCCC2)n1-c1ccccc1)c1ccc2c(c1)OCO2,x,1.2
O=S(=O)(NCCc1ccccc1)c1cccc2cccnc12,-0.346,1.1
COc1ccc(CN(C)CC(=O)c2c[nH]c3ccccc23)c(OC)c1,x,-7.0
CC(C)N(Cc1ccccc1)S(=O)(=O)c1ccc2c(c1)CCO2,x,-1.7
CC(O)/C=C\c1cc[n+](C)cc1 (stereo not given),x,2.0
NC(=O)N1c2ccccc2CC(=O)c2ccccc21,-0.48&0.11&0.036&1.27,0.7

# Additional entries
SMILES,LANA-nucl inh,Ab BasE inh
CNC(=O)NCC12CC3CC(CC(C3)C1)C2,x,0.8
O/N=C1\CC(O)(C(F)(F)F)Oc2ccc(Cl)cc21 (stereo not given),-0.519,1.8
COc1cc(OC)cc(C(=O)NCC(=O)OC2CCOC2=O)c1 (stereo not given),x,1.0
C#CCNCc1cc(=O)n2ccsc2n1,x,-0.6
CC1CCN(C(=O)c2cc3sccc3n2C)CC1,0.243,3.0
Cc1cc(C(=O)O)c(=O)[nH]c1C,x,-0.9
O=C(CSc1nnc2sc3ccccc3n12)N1CCc2ccccc21,x,3.2
Oc1ccc(Cl)cc1/C=N/c1nccs1,-1.44,3.9
CC(C)C1=NN(C(=O)C(O)c2ccccc2)C(O)(C(F)(F)F)C1 (stereo not given),0.302,0.4
CC(NC(=O)c1cccs1)c1ccccc1 (stereo not given),-0.63,0.2
CCOC(=O)C1=C(CSc2ccc(C)cc2C)NC(=O)NC1C (stereo not given),x,0.4
O=C(Nc1cccc(C(F)(F)F)c1)c1cccs1,1.39,-1.6
CNC(=S)NC1CC2CCC1C2 (stereo not given),x,1.2
CCN1C(=O)c2ccccc2S(=O)(=O)c2ccc(C(=O)N3CCCCC3)cc21,0.348,3.3
Cc1cc(C)n2nc(SC/C(O)=C(\C#N)c3nc4ccccc4[nH]3)nc2n1,x,-2.3
C=CCSc1nnc2c(n1)OC(C1CC=C(C)CC1)Nc1ccccc1-2 (stereo not given),-1.43,32.3
N#CC1(NC(=O)CSc2nnc(COc3ccccc3F)n2-c2ccccc2)CCCCC1,x,0.5
CCCC(=O)ON1C(=O)c2cccc3cccc(c23)C1=O,0.231,2.3
CNC(=S)NCCN1CCCCC1,-0.332,0.3
O=C(Cc1cn2ccsc2n1)N/N=C1\C(=O)c2cccc3cccc1c23,x,2.7
CCn1c(Sc2nnnn2-c2ccccc2)nc2cc(S(=O)(=O)N3CCOCC3)ccc21,x,-1.9
CC1(C)Cc2c(ccc3ccccc23)C(=O)N1,-0.919,0.3
O=C(O)CN1CCSC1=O,x,0.9
COC(=O)c1ccccc1OC(=O)c1ccncc1,-0.0095,1.9
Oc1cccc2c1NCCC2,0.931,-0.3
CCCCn1c(CN2CCOCC2)nc2ccccc21,-0.228,1.6
O=C(NCC1CCCO1)C12CC3CC(CC(C3)C1)C2 (stereo not given),3.03,-2.5
COc1ccc2ccccc2c1CN1CCN(C(=O)c2ccco2)CC1,-0.99,0.0
O=C(O)c1ccccc1CSc1nc2cc(Cl)ccc2o1,x,-3.0
COc1ccc(CNCC(O)COCc2cccs2)cc1 (stereo not given),x,-1.4
CCOC(=O)c1c(-c2ccccc2)oc2c(-c3ccccc3)cc(O)cc12,x,0.3
CCCc1cc(CN)on1,-0.694,-0.6
CCOC(=O)/C(=C(/C)N)C1CC(=O)N(c2ccc(C(=O)OCC)cc2)C1=O (stereo not given),x,3.7
N#CC(C#N)=Cc1cn(-c2ccccc2)nc1-c1ccc2c(c1)OCCO2,x,3.1
